Screening data as filed in PubChem BioAssay.
GALR2 agonist = GALR2 (human) receptor agonism; O43603; GALR2-expressing cells, agonist activation read-out; activation, %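 (tested at 5 µM)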; actives 0.48% (n = 140,000);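 active means above mean plus 3 SD of all compounds, about 5% in these data, not always enough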;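 further: 0% = vehicle buffer wells and 100% = reference agonist at full effect; tested in CHO reporter cells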
Target sequence (O43603 whole entry, looked up): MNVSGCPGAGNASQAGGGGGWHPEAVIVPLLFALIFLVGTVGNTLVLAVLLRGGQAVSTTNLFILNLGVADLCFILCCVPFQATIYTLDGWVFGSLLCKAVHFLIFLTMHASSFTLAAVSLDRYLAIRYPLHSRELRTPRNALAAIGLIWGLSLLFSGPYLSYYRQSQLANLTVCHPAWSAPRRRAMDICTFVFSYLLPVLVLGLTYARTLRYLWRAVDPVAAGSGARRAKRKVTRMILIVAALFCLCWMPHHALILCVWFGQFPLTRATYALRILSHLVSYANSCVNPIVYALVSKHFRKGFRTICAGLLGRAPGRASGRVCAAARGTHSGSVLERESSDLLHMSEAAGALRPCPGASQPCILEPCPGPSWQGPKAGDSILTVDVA
INS promoter inh = TRM-6 insulin promoter activity inhibition; TRM-6 cells (human fetal islet line), insulin promoter-eGFP reporter, imaging; reporter expression induced with tamoxifen; actives 0.9% (n = 130,000); inhibition, % at 2 µM;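 active means inhibition above the mean plus 3 SD, with well images judged a real hit on visual review, cut at about 60% in these data, passing the limit was not always enough; inconclusive means inhibition over the cutoff but images rejected on review; inactive means inhibition not above the cutoff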
RGS16-Gao HTS = regulators of human RGS16-Galphao interaction | O15492+P09471 | binding response (% of control), % at 10 µM | bead-based flow cytometry RGS16-Galphao binding, fluorescence; actives lie on both sides | actives 0.38% (n = 220,000) | AID 1441;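 active means below 25% or above 175%, edge rows of some plates excepted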;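 further: Galphao activated by GDP with aluminum fluoride before binding; 100% = wells without compound and 0% = beads without RGS; some results beyond the cut were filed as inactive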
Target sequence (O15492 whole entry, looked up): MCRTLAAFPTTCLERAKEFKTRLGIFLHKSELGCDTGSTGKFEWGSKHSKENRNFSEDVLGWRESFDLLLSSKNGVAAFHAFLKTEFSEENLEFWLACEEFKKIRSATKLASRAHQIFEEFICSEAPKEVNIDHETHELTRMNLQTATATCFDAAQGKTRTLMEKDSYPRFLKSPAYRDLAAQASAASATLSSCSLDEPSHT
Target sequence (P09471 whole entry, looked up): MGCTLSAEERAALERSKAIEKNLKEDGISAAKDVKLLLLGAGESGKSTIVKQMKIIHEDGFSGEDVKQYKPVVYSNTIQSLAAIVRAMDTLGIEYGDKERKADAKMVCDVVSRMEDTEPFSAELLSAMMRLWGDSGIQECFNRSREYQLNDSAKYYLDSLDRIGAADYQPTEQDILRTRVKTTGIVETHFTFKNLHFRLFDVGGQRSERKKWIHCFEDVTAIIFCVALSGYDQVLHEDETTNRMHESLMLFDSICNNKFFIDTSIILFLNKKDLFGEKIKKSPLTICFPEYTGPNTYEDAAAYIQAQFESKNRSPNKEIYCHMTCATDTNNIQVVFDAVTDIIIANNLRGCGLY
PKD1 inh = inhibitors of human PKD1 kinase; inhibition, %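 (about 10 µM by stock and volumes)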; Q15139; AID 797; actives 0.056% (n = 200,000); PKD1 kinase fluorescence polarization assay;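 active means inhibition of 50% or more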;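 further: controls were vehicle for no effect and a reference inhibitor for full effect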
HSV augment = increases HSV replication in cells | AID 1956 | HSV replication augmentation in cells, fold increase | maximum fold increase | actives 0.005% (n = 220,000);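 active means peak rise of 1.5-fold or more in the series; inconclusive means self-fluorescent or not available for retest; tested in PC3 cells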;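 further: first round at 10 µM; read as green reporter fluorescence; hits show the peak of a series up to 25 µM; 1 = signal of infected wells without compound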
INS promoter inh cell count = second read-out of INS promoter inh, no call of its own (marks repeat the call); normalized cell count, %; measured here: cell count, toxicity; reference of the scale not given here;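 cells exposed to compound for 48 h; stained nuclei by imaging scaled within each plate; lower means fewer cells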
HSV augment primary fold = recorded beside HSV augment, whose call it bears; fold increase; compound at 10 µM; measured here: primary screen fold increase 10 uM; tested in PC3 cells;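 GFP signal in the first replicate; 1 = infected wells without compound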
The depositor's hits bear a star; i = inactive; u = inconclusive; x = no result given.

Values run as follows: PKD1 inh, INS promoter inh, GALR2 agonist, RGS16-Gao HTS, INS promoter inh cell count, HSV augment, HSV augment primary fold
Cc1cc(C)c(S(=O)(=O)Nc2ccc(-c3cn4ccccc4n3)cc2)c(C)c1
  0, 10, 0.6, 102, 118, i, 0.84
CCCc1cc(=O)oc2cc(OCc3ccc(OC)cc3)c(Cl)cc12
  2, x, 0.4, 89, x, i, 1.1
CCN(c1ccccc1)C1(O)C(=O)c2ccccc2C1=O
  3, -20, x, 95, 93, i, 0.9
CC(=O)CCS(=O)(=O)c1ccc(NC(C)=O)cc1
  -2, 68, -1.2, 100, 84, i, 1.2
COCC(=O)NNS(=O)(=O)c1ccccc1[N+](=O)[O-]
  3, -10, -2.2, 141, 70, i, 1
CCOC(=O)N1CCN(C(=O)CN(c2cccc(C(F)(F)F)c2)S(C)(=O)=O)CC1
  -18, x, -0.5, 97, x, i, 0.97
O=C(NCCCn1ccnc1)Nc1ccc(Cl)cc1
  -7, 77*, -3.6, 102, 82*, i, 0.89
O=C(O)c1ccccc1OC(=O)C12CC3CC(CC(C3)C1)C2
  -5, x, x, 101, x, i, 0.92
Cc1nn(C)c(C)c1NC(=O)CN1CCC(O)(c2ccc3c(c2)OCO3)CC1
  -5, x, -2.3, 133, x, i, 1.1
COc1ccc(CCN2C(=O)CC(N3CCOCC3)C2=O)cc1 (stereo unspecified)
  -3, 11, -3.1, 102, 42, i, 0.78

Random excerpt: 2 records from the list
Values run as follows: PKD1 inh, INS promoter inh, GALR2 agonist, RGS16-Gao HTS, INS promoter inh cell count, HSV augment, HSV augment primary fold
Cc1cc(C)c(S(=O)(=O)Nc2ccc(-c3cn4ccccc4n3)cc2)c(C)c1
  0, 10, 0.6, 102, 118, i, 0.84
O=C(NCCCn1ccnc1)Nc1ccc(Cl)cc1
  -7, 77*, -3.6, 102, 82*, i, 0.89

New compounds follow:
Values run as follows: PKD1 inh, INS promoter inh, GALR2 agonist, RGS16-Gao HTS, INS promoter inh cell count, HSV augment, HSV augment primary fold
CCOc1cccc(NC(=O)/C(C#N)=C/c2cccnc2)c1
  x, x, x, 98, x, i, 0.84
COc1ccc(C(=O)c2ccc(CC(=O)O)s2)cc1
  4, x, x, 103, x, i, 0.98
O=C(Cc1cccc2ccccc12)N/N=C/c1ccc(Sc2nc3ccccc3s2)o1
  -10, x, -0.3, 101, x, i, 0.78
CCOC(=O)c1c(C)n(-c2ccc(C)cc2)c2ccc(OCC(O)CNCC3CCCO3)cc12 (stereo unspecified)
  1, -38, x, 99, 115, i, 0.68
CCOC(=O)CSC1=NN2CCS(=O)(=O)N=C2S1
  3, 69, x, 99, 98, i, 1.1
CCSc1ccccc1C(=O)Nc1ccc2c(c1)OCO2
  -2, x, x, 95, x, i, 1
CCOC(=O)c1cnc2ccccc2c1Nc1cc(C(=O)O)ccc1C
  -5, -36, x, 86, 107, i, 1
COc1cccc(C(=O)Nc2ncc3c(n2)CC(c2ccc(OC)cc2OC)CC3=O)c1 (stereo unspecified)
  6, x, -1.4, 92, x, i, 0.57
COCCCNC(=O)c1ccccc1-c1cc(C)no1
  x, x, x, 108, x, i, 0.97
Cc1cc(C)n(-c2nc3c(c(=O)[nH]c(=O)n3C)n2Cc2cccc(Br)c2)n1
  3, -46, -0.4, 86, 120, i, 0.89
COc1ccc(/C=N/NC(=O)c2sc3nc(C)cc(C)c3c2N)cc1
  x, x, x, 98, x, i, 0.89
Cc1cc(CNC(=S)Nc2ccc(Br)cc2Cl)nn1C
  0, x, x, 99, x, i, 0.92
COc1cc(C#N)c(NC(=S)N2CCOCC2)cc1OC
  -3, -31, x, 90, 90, i, 0.94
COCCN1C(=O)C(CC(=O)Nc2ccc(C(C)=O)cc2)SC1=Nc1ccccc1 (stereo unspecified)
  -8, -26, -3.2, 103, 92, i, 0.93
Cc1cccnc1NC(=O)CCNS(=O)(=O)c1ccc2c(c1)c(=O)n(C)c(=O)n2C
  -6, -50, x, 100, 83, i, 1
CC(NC(=O)Nc1ccccc1)C(c1cccs1)N1CCN(c2ccccc2)CC1 (stereo unspecified)
  7, x, x, 126, x, i, 1
Cc1ccccc1Nc1ncnc2c1cnn2-c1ccccc1
  -6, x, -0.8, 100, x, i, 0.85
COc1ccc2c(c1)C1CC(C)(NC(=O)C1S(=O)(=O)c1ccc(F)cc1)O2 (stereo unspecified)
  8, x, 0.4, 99, x, i, 0.96
Cc1cc(=O)oc2cc(OCC(=O)Nc3nnc(C4CC4)s3)ccc12
  x, x, x, 101, x, i, 0.95
CCC(=O)c1cc(-c2nc3ccccc3n2C)n(C)c1
  -6, -8, -2.2, 106, 137, i, 1
COc1ccc(NC(=O)Nc2ccc(CC(=O)O)cc2)cc1
  -3, x, x, 105, x, i, 0.88
Cc1cc(OCCCn2ccnc2)cc(C)c1Cl
  -1, 0, 0.2, 105, 125, i, 1.1
Cn1ccnc1SCC(=O)Nc1ccc2ccccc2c1
  0, -148, 0.1, 102, 88, i, 0.85
O=C(CN1CCSCC1)N/N=C/c1cccc(Cl)c1
  1, x, x, 101, x, i, 1.1
COc1cccc(C(=O)Nc2c(F)cccc2F)c1
  4, x, x, 101, x, i, 1
O=C(CCCCCN1C(=O)CCC1=O)Nc1ccc(Cl)c(C(F)(F)F)c1
  -1, 12, -1.1, 110, 120, i, 0.83
COC(=O)c1ccc2nc(-c3cccc(N)c3)cn2c1
  -14, x, x, 107, x, i, 0.95
COc1ccccc1N(C(=O)CNS(=O)(=O)c1ccccc1)C(C(=O)NCc1ccco1)C(C)C (stereo unspecified)
  -5, x, -1.6, 100, x, i, 0.94
Cc1cc(C)n2nc(C(=O)N/N=C/c3ccc(O)cc3)nc2n1
  -5, x, x, 101, x, i, 0.97
CC1=C(C(N)=O)C(c2cccnc2)n2nc(SCc3ccccc3Cl)nc2N1 (stereo unspecified)
  0, -6, -1.9, 103, 130, i, 0.86
COc1ccc(C(O)P(=O)(OC(C)C)OC(C)C)c(OC)c1 (stereo unspecified)
  x, x, x, 94, x, i, 1.2
COC(=O)c1c(NC(C)=O)sc2c1CCCCC2
  0, 46, -0.8, 98, 108, i, 1.1
Clc1ccc(-c2ccc(/C=N/Nc3nncc(-c4ccccc4)n3)o2)cc1
  -4, 4, -1.7, 97, 224, i, 0.91
Cc1cccc(NC(=O)NCCc2c[nH]c3ccccc23)c1
  -4, -3, -1.1, 93, 123, i, 1.1
CC(=O)N1C(=O)C(=C2C=C(C)OC(C)=C2)c2ccccc21
  -8, x, -0.7, 101, x, i, 1.1
CCCc1[nH]nc2c1C(/C(C)=C/c1ccccc1)C(C#N)=C(N)O2 (stereo unspecified)
  -1, x, -3.0, 97, x, i, 0.73
CCN1CCC2(CC1)C(C#N)=C(N)Oc1c2sc2nc(C)cc(C)c12
  -5, x, -1.0, 96, x, u, x
Cc1nc2nc(SCC(=O)O)nn2c(C)c1Cc1c(F)cccc1Cl
  4, x, x, 104, x, i, 0.98
COCCN1C(=O)c2oc3ccccc3c(=O)c2C1c1cccc(O)c1 (stereo unspecified)
  -5, x, -4.0, 101, x, i, 0.98
COc1ccc(NC(=S)Nc2ccccc2F)c(OC)c1
  -15, 23, -2.3, 99, 138, i, 1
CCCCn1c(SCC(N)=O)nc2ccc(N3CCOCC3)cc2c1=O
  9, 18, -2.8, 96, 137, i, 1
CC(C)CCn1c(S(=O)(=O)O)nc2ccccc21
  2, -8, -0.1, 102, 209, i, 0.86
CC1(C)CC2CC(C)(CN2/C=C2/CCCCC2=O)C1 (stereo unspecified)
  x, x, x, 100, x, i, 0.9
COc1c(S(=O)(=O)N2CCN(c3ccc(F)cc3)CC2)ccc(Cl)c1Cl
  -9, 74*, 0.2, 100, 56*, i, 0.85
COc1ccc(CCn2c(C(C)C)nc3c(c(=O)c4ccccc4n3C)c2=O)cc1
  2, -66, 1.4, 103, 97, i, 0.76
CCOc1cc(CNCCO)c(Cl)cc1OCC(=O)NCCc1ccccc1
  -6, -7, -2.4, 103, 104, i, 0.95
CC(C)(C)c1cc(CCC(=O)NNC(=O)c2ccco2)cc(C(C)(C)C)c1O
  -5, 46, -2.5, 97, 66, x, x
S=c1[nH]nc(NCCc2ccccc2)s1
  -4, x, x, 102, x, i, 1
O=c1c(Cc2c(F)cccc2Cl)c(O)ccn1CCc1ccccn1
  -3, 20, x, 102, 98, i, 1
CCCNC(=O)Nc1ccc(C(F)(F)F)cc1
  -1, x, x, 104, x, i, 0.99

The results go on:
Values run as follows: PKD1 inh, INS promoter inh, GALR2 agonist, RGS16-Gao HTS, INS promoter inh cell count, HSV augment, HSV augment primary fold
Cc1ccc(CN2C(=NC(=O)CCC(=O)O)SC3CS(=O)(=O)CC32)cc1 (stereo unspecified)
  x, x, x, 95, x, i, 1
O=C(CCN1C(=O)C2C3C=CC(C3)C2C1=O)Nc1ccc2ncccc2c1 (stereo unspecified)
  -7, -3, 0.3, 100, 65, i, 0.87
COc1ccc(C(O)C(CC(=O)NCCCOC(C)C)C(=O)NCCCOC(C)C)cc1OC (stereo unspecified)
  1, x, 0.3, 103, x, i, 1
COC(=O)Cc1n[nH]c(=O)c2ccccc12
  -3, 36, -0.8, 103, 132, i, 0.86
COC(=O)c1ccc2c(=O)[nH]c(CSc3nnc(C(F)(F)F)n3C)nc2c1
  5, -34, -0.8, 16*, 64, i, 0.91
O=C(NCCN1CCOCC1)c1ccc2c(c1)N(Cc1c(F)cccc1Cl)C(=O)c1ccccc1S2
  -10, -12, x, 104, 87, i, 0.81
Cc1cc([N+](=O)[O-])ccc1NCc1ccc2ccccc2c1
  -1, x, -1.6, 101, x, i, 1.2
O=C(CSc1ccccn1)N1CCN(c2cccc(Cl)c2)CC1
  -3, x, -1.8, 99, x, i, 1.1
CC(=NCCc1ccccc1)C1=C(O)COC1=O
  -2, x, -0.6, 99, x, i, 1.1
CCOc1ccc(NC(=O)CN(C)CC(=O)Nc2ccc(Br)cc2F)cc1OCC
  -3, x, x, 101, x, i, 0.95
CCN(CC)P(=O)(Nc1cccc(C(F)(F)F)c1)c1ccc(N(C)C)cc1NC(=O)c1ccco1 (stereo unspecified)
  -6, x, x, 101, x, i, 0.82
Clc1ccc2nc(CN3CCCCCC3)cn2c1
  -4, -31, -0.2, 97, 254, i, 1
O=C(CCc1ccc(S(=O)(=O)NCc2ccccc2)cc1)NCC1CCCO1 (stereo unspecified)
  -16, -60, 0.1, 102, 105, i, 0.89
O=C(Cn1c(C(=O)NCCCN2CCOCC2)cc2sccc21)c1ccccc1
  0, -58, -1.1, 107, 94, i, 1.2
CN1CCN(CCCNC(=O)c2ccc3c(c2)N(Cc2ccccc2)CCS3)CC1
  -5, x, -0.8, 140, x, i, 1.2
Cn1c(=O)n(C)c2cc(NS(=O)(=O)c3ccc(Cl)s3)ccc21
  -2, 25, x, 98, 77, i, 0.84
Fc1ccc(NC(=S)N2CCc3[nH]c4ccccc4c3C2)cc1
  x, x, x, 95, x, i, 0.97
CCCn1c(=C(C#N)C#N)s/c(=C2\C=Cc3ccccc3N2CC)c1=O
  -17, 8, -0.7, 100, 120, i, 1.2
CCOc1cc(C(=S)N2CCCC2)ccc1OCC(=O)Nc1c(C)cc(C)cc1C
  -4, x, -2.2, 51, x, i, 0.97
CN1CCN(NC(=O)c2cccc3ccccc23)CC1
  -9, 57, -1.9, 122, 134, i, 0.94
Cc1ccc(CNCc2cccnc2)s1
  -9, x, x, 101, x, i, 0.99
CCN(CC)S(=O)(=O)N1CCC(C(=O)NC2CCCC2)CC1
  -12, 31, -1.6, 104, 217, i, 0.96
Cc1onc(-c2ccccc2)c1C(=O)N1CCCc2ccccc21
  -3, x, -3.1, 103, x, i, 0.99
CC(Oc1ccc2oc3ccccc3c2c1)C(=O)NC12CC3CC(CC(C3)C1)C2 (stereo unspecified)
  1, -18, 0.2, 109, 73, i, 0.99
